Screening data deposited in PubChem BioAssay by National Center for Advancing Translational Sciences (NCATS).
VACV mCherry inh = vaccinia inhibition (mCherry reporter). Vaccinia virus mCherry reporter infection, fluorescence; about a quarter of the inactives have no number. Potency, µM (highest dose often 36.5 µM), inactives show top-dose activity change, negative = inhibition, usual class: inhibitors. 0.63% of 310,000 active. AID 720579; active = well fitted inhibition curve with a large enough effect; inconclusive = small, poorly fitted or top-dose-only effect; inactive = no such curve, though single readings can be large or run the other way; tested in A549 cells; further: nearly all actives have a fitted effect of over 35% in size; inactives centre near -10
Vaccinia Venus = vaccinia inhibition (Venus reporter); Vaccinia virus Venus reporter expression, fluorescence; Potency, µM (highest dose often 36.5 µM), inactives show at the highest dose activity change, negative = inhibition, most hits filed as inhibitors; 0.46% of 330,000 active; AID 720580; active means well fitted inhibition curve with a large enough effect; inconclusive means small, poorly fitted or top-dose-only effect; inactive means no such curve, though single readings can be large or run the other way; tested in A549 cells; further: nearly all actives have a fitted effect of over 30% in size; inactives centre near -10
The depositor's hits bear a star; i = inactive; ? = inconclusive; . = not tested or not shown; & = joins results of further samples; [ ] = remark or other dose. On the % scale 0 is the no-effect control and ±100 the full control effect; potency means the concentration at half of the fitted maximal effect. The order is random; any-hit rate near 0.87%.

SMILES | VACV mCherry inh | Vaccinia Venus
COc1ccc(Cn2nnnc2CN2CCc3ccccc32)cc1 | -2% | -2%
O=C(NCCN1CCOCC1)/C(=C/c1ccc(Cl)cc1)NC(=O)c1ccccc1 | -5% | -5%
COc1cccc(S(=O)(=O)N(C)C[C@@H]2OCc3cnnn3CCCC(=O)N([C@@H](C)CO)C[C@@H]2C)c1 | 9% | -12%
CCOc1ccc(NC(=O)C2CCCN2C(=O)Oc2ccccc2)cc1 (stereo not given) | i | ?
CN(CCO)c1cc(N2CCC3(CC2)OCCO3)c2nonc2c1[N+](=O)[O-] | -1% | -1%
COC(=O)C1=C(c2ccc(F)cc2F)C[C@@H]2CC[C@H]1N2C(=O)NCCOc1ccccc1Cl | -13% | -21%
CCC(Sc1nc(N)c(NC(=O)c2ccc(Br)o2)c(=O)[nH]1)C(=O)O (stereo not given) | -4% | 1%
CC1(c2ccc(OCC(N)=O)cc2)NC(=O)NC1=O (stereo not given) | -19% | -6%
COc1cc(/C=C(/C#N)C(=O)Nc2ccccc2)c(Br)cc1OCc1ccc(C(=O)O)cc1 | 5% | -3%
Cc1nc2ccccc2nc(=O)c1NNc1ccc([N+](=O)[O-])cc1 | 4% | 9%
Cc1nc(C/C(=N\N)c2ccc(O)cc2O)cs1 | -2% | -15%
CC(C)Oc1ccc(C2CC(=O)N(c3ccc(C(=O)O)cc3)C2=O)cc1 (stereo not given) | i | -5%
NC(=O)CN1CCN(S(=O)(=O)c2ccc(Br)cc2)CC1 | -9% | -18%
COc1ccc(OCC(=O)Nc2ccccc2C(=O)NC(C)C)cc1 | -2% | -21%
Cn1c(=O)c2c(nc(Oc3ccccc3)n2Cc2c(Cl)cccc2Cl)n(C)c1=O | 3% | 1%
COc1cccc2sc3ccc(C#CC4(N)CCCCC4)cc3c(=O)c12 | ? | ?
CC(C)C[C@H]1CN(CCCC[C@H]2CNC(=O)C(=O)N2CCc2ccc(O)cc2)C(=O)C(=O)N1CCc1ccc(O)cc1 | i | 6%
Cc1ccc(NC(=O)COC(=O)CCn2c(C)csc2=O)c([N+](=O)[O-])c1 | -5% | -1%
Cc1cccc(NC(=O)C(c2ccccc2Cl)N2CCOCC2)c1 (stereo not given) | -13% | -1%
CCOc1ccc(C(=O)N2CCC(c3nc4ccccc4o3)CC2)cc1 | -15% | -17%
O=C1c2cccc3cccc(c23)C(=O)N1Cc1ccccc1 | -7% | -15%
Cc1cccn2c(=O)c(/C=C(\C#N)S(=O)(=O)c3ccccc3)c(N3CCN(C)CC3)nc12 | . | -11%
O=C(C[C@H]1CC[C@H]2[C@@H](COC[C@@H](O)CN2S(=O)(=O)c2ccc(F)cc2)O1)N[C@@H]1CCN(Cc2ccccc2)C1 | -13% | -13%
CCSC1=NCCN1S(=O)(=O)c1ccc(NC(C)=O)cc1 | i | -7%
Cc1ccc(Cn2c(-c3nonc3N)nc3ccccc32)cc1 | . | -6%

The closing 4 entries of the part above are carried over, then new ones follow.
SMILES | VACV mCherry inh | Vaccinia Venus
Cc1cccn2c(=O)c(/C=C(\C#N)S(=O)(=O)c3ccccc3)c(N3CCN(C)CC3)nc12 | . | -11%
O=C(C[C@H]1CC[C@H]2[C@@H](COC[C@@H](O)CN2S(=O)(=O)c2ccc(F)cc2)O1)N[C@@H]1CCN(Cc2ccccc2)C1 | -13% | -13%
CCSC1=NCCN1S(=O)(=O)c1ccc(NC(C)=O)cc1 | i | -7%
Cc1ccc(Cn2c(-c3nonc3N)nc3ccccc32)cc1 | . | -6%
O=C(NNc1ccccc1C(F)(F)F)c1sccc1Cl | -20% | -12%
CC(OCC(O)CN(C)Cc1nc2ccccc2c(=O)[nH]1)c1ccc(Cl)cc1 (stereo not given) | i | -29%
CCn1c(C(=O)N2CCCC(C(=O)NCCCOC)C2)cc2sccc21 (stereo not given) | -10% | -4%
Cc1ccc(S(=O)(=O)N2CCCSCC2)cc1 | . | -18%
Nc1ccc(C(=O)Nc2ccc3nc(-c4cccnc4)[nH]c3c2)cc1 | . | -12%
Cn1c(=O)c2cc(S(=O)(=O)NCCC(=O)Nc3ccc(Cl)cc3)ccc2n(C)c1=O | -18% | -18%
O=C(CN(C(=O)CCC(=O)Nc1ccccn1)c1ccc2c(c1)OCO2)NCc1ccco1 | . | -15%
CCn1c(SCC(=O)Nc2cc(C)on2)nnc1-c1ccncc1 | -15% | -4%
O=C(CN1C(=O)NC2(CCCC2)C1=O)NCCc1ccc(F)cc1 | i | -10%
O=C1c2cccc3cccc(c23)C(=O)N1CCCc1n[nH]c(=S)n1-c1ccccc1 | -10% | -10%
CCN1c2ccccc2-c2nc(SCC(=O)Nc3cc(C)c(Cl)cc3OC)ncc2S1(=O)=O | -12% | 3%
COC(=O)c1ccc(N2C(=O)C3CC(C)=C(C)CC3C2=O)cc1 (stereo not given) | 4% | 5%
COc1ccc(C)cc1NC(=O)C1CCCCC1C(=O)O (stereo not given) | -15% | -8%
COc1ccc(C2CC(c3ccc4ccccc4c3)=NN2C(=O)CN2CCC(C(N)=O)CC2)cc1 (stereo not given) | -12% | -24%
N/C(=N\OC(=O)c1cccc(Cn2cc(C(F)(F)F)ccc2=O)c1)c1ccc(Cl)cc1 | i[7.34 µM] | 1%[7.34 µM]
CC(C)[C@H](NC(=O)c1ccccc1)C(=O)OCC(=O)N1CCN(C(=O)c2ccco2)CC1 | -8% | -13%
CN(C)CCCn1c2c(c(SCC(=O)Nc3nccs3)nc1=O)CCC2 | i | -12%
CCN(CC)S(=O)(=O)c1cccc(NC(=O)c2cncc(Br)c2)c1 | i | -23%
CCOc1ccc(NC2=CC(=O)CCC2)cc1 | -25% | -14%
CC12CCC(C(=O)N3CCC(Cc4ccccc4)CC3)(C(=O)C1=O)C2(C)C (stereo not given) | i | -27%
Cc1cccc(NC(=O)c2ccc(S(=O)(=O)N(C)c3ccccc3)cc2)n1 | -14% | 4%
Cn1cc(C(=O)N2CCN(C(=O)c3ccco3)CC2)c2c3ccccc3n(C)c2c1=O | -31% | -15%
CCOC(=O)c1sc(SC)c2c1CCCC2=O | -6% | -14%
CCOC(=O)C1CCN(C(=O)c2ccc(N3CCCC3=O)cc2)CC1 | -7% | -7%
O=C(Nc1ccccc1C(F)(F)F)N1CCC(CN2CCc3ccccc3C2)CC1 | -13% | -4%
SMILES | VACV mCherry inh | Vaccinia Venus
CCOC(=O)C1=C(COC(=O)/C=C/c2cccc(Cl)c2)NC(=O)NC1C (stereo not given) | -13% | -7%
CN(/N=C/c1cc([N+](=O)[O-])ccc1O)c1ccccc1 | i | -7%
Cc1cc(C)n(C(=O)c2ccc(C)c(F)c2F)n1 | -15% | -5%
CCOC(=O)c1c(C2CCN(C(=O)OCC)CC2)nc2ccccn12 | i | -20%
Cc1ccc(C)c(/C=N/Nc2ccccn2)c1 | -14% | -9%
CC(C)n1c(SC2CCOC2=O)nc2ccccc21 (stereo not given) | i | -13%
CCc1nc(OCc2ccco2)c2sc3nc4c(cc3c2n1)COC(C)(C)C4 | . | -10%
O=C(Nc1ccccc1N1CCCCC1)C1CCN(C(=O)c2ccc(Cl)cc2)CC1 | -21% | -26%
COC(=O)CC1C(=O)NCCN1C(=O)CN1Cc2ccccc2OC(c2ccccc2)C1 (stereo not given) | -9% | -7%
COc1ccc2oc(=O)cc(CN3CCN(Cc4ccccc4)CC3)c2c1 | i | -13%&-17%
Cc1ccc(-n2nc(C(=O)Nc3ccc(C)c(F)c3)c3c4ccccc4n(C)c3c2=O)cc1 | -9% | -3%
CNC(=S)N/N=C/c1ccco1 | -2% | -2%
C[C@]12CCC3C(CC[C@@H]4C[C@@H](O)CC[C@]34C)C1CC[C@@H]2O (stereo not given in full) | -14% | -11%
Cc1cc(S(=O)(=O)NCCc2ccccc2)ccc1-n1cnnn1 | -24% | -8%
COc1cc(C2CC(=O)Nc3c2c(=O)n(C)c(=O)n3C)cc(OC)c1OC (stereo not given) | -6% | -2%
O=C(NNC(=O)c1cccs1)c1ccncc1 | 5% | -12%
OC[C@@H]1[C@@H](c2ccc(Cl)cc2)C(c2ccc(F)cc2)=NN1c1ccccc1 | -4% | ?
COC(C[C@@H](O)C[C@H](O)COCc1ccccc1)OC | ? | -15%
O=C(NCc1ccc2c(c1)OCO2)C1CCN(S(=O)(=O)N2CCOCC2)CC1 | -18% | -6%
Cc1ccc2nc(-c3ccccc3)c(Cc3cccc(Cl)c3)n2c1 | 8% | 2%
O=C(COC(=O)c1ccc2c(c1)OCCO2)NCc1ccccc1 | . | -28%
CC1CCN(S(=O)(=O)c2ccc3nc(NCc4ccc(F)cc4)ccc3c2)CC1 | -16% | -13%
CCCN(CCC)C(=O)C1CCCN1S(=O)(=O)c1cccc2nsnc12 (stereo not given) | i | -26%
CCOC(=O)CN1C(=O)N[C@@H](CCc2ccccc2)C(C(=O)OC)=C1C | -16% | -17%
Nc1c(C(=O)NCc2ccccc2)sc2nc3c(cc12)C(=O)CCC3 | ? | ?

Quoted from the listing.
Result for CC(C)n1c(SC2CCOC2=O)nc2ccccc21 (stereo not given) in Vaccinia Venus: -13%
Result for Cc1ccc2nc(-c3ccccc3)c(Cc3cccc(Cl)c3)n2c1 in VACV mCherry inh: 8%
Result for O=C(Nc1ccccc1N1CCCCC1)C1CCN(C(=O)c2ccc(Cl)cc2)CC1 in Vaccinia Venus: -26%
Result for COc1cc(C2CC(=O)Nc3c2c(=O)n(C)c(=O)n3C)cc(OC)c1OC (stereo not given) in Vaccinia Venus: -2%
Result for CN(/N=C/c1cc([N+](=O)[O-])ccc1O)c1ccccc1 in Vaccinia Venus: -7%
Result for OC[C@@H]1[C@@H](c2ccc(Cl)cc2)C(c2ccc(F)cc2)=NN1c1ccccc1 in VACV mCherry inh: -4%

Remaining list, next part
SMILES | VACV mCherry inh | Vaccinia Venus
Cc1cccc(NC(=O)c2cccc(NC(=O)c3ccccc3)c2)n1 | 7% | -11%
COc1ccc(CNCCC2(O)CC(C)N(C)CC2C)cc1OC (stereo not given) | i | -3%
COC(=O)c1ccc(CNC(=O)C2CCC(=O)N(Cc3cccc(F)c3)C2)cc1 (stereo not given) | -13% | -7%
CC(C)=NOc1cc(NC(=O)CCl)cc([N+](=O)[O-])c1 | ? | -26%
Cc1cc(C)n(C(=O)c2ccc(C)c(S(=O)(=O)N3CCCC3)c2)n1 | -18%[1.46 µM] | 6%
Cc1[nH]n(-c2ccccc2)c(=O)c1N=Nc1ccc(C(N)=O)cc1 | i | -7%
COC(=O)CSc1nnc(CCc2nc3ccccc3[nH]2)n1C | -10% | -5%
CCOc1ccc(-c2[nH]ncc2-c2csc(C)n2)c(O)c1 | -12% | -15%
Cc1nc2c(-c3ccc(F)cc3)c(C)nn2c(C)c1CCC(=O)N1CCC(Cc2ccccc2)CC1 | i | -14%
CC(=O)N1CCC(N(CCCOC(C)C)C(=O)Nc2ccc(Cl)cc2)CC1 | i | -8%
Cc1ccc(S(=O)(=O)N2CCN(CC(=O)N/N=C\c3cccnc3)CC2)cc1 | -12% | -10%
CCC1=C(OC(=O)N(CC)CC)N2C(=O)OC(=NCC3CC3)[C@]2(C)[C@H]2C1=CC[C@H]1C(=O)NC(=O)[C@H]12 | i | -8%
CCN(CC)S(=O)(=O)c1ccc(N2CCOCC2)c(NC(=O)C2CSC3(C)CCC(=O)N23)c1 (stereo not given) | -12% | -9%

4 structures already listed, arranged by count of non-hydrogen atoms, ascending:
SMILES | VACV mCherry inh | Vaccinia Venus
CC(C)=NOc1cc(NC(=O)CCl)cc([N+](=O)[O-])c1 | ? | -26%
Cc1cc(C)n(C(=O)c2ccc(C)c(S(=O)(=O)N3CCCC3)c2)n1 | -18%[1.46 µM] | 6%
COC(=O)c1ccc(CNC(=O)C2CCC(=O)N(Cc3cccc(F)c3)C2)cc1 (stereo not given) | -13% | -7%
Cc1nc2c(-c3ccc(F)cc3)c(C)nn2c(C)c1CCC(=O)N1CCC(Cc2ccccc2)CC1 | i | -14%
